MgcRacGAP Rac1 = inhibition of MgcRacGAP-stimulated Rac1 GTP hydrolysis – biochemical, inorganic phosphate detection, orthogonal assay, confirmation (AID 652142). MgcRacGAP/Rac1F28L GTP hydrolysis, Biomol green phosphate; stronger effect = higher value; test concentration not given here; none was called active though about 1 in 100 pass the limit. inhibition, %. 2,400 tested, under 10 active;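 active = inhibition over three standard deviations or about 65%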;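 also: full inhibition control lacks the GAP enzyme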
Active calls of the source: *. This is a subset (hit frequency here may not be typical).

SMILES | MgcRacGAP Rac1
COc1cc(CNCc2ccccc2C(F)(F)F)cc(OC)c1 | 19
O=c1oc2ccccc2cc1-c1csc(Nc2ccc(O)cc2)n1 | 19
Nc1ccc2c(c1)OCCOCCOCCOCCOCCO2 | -5
COc1cc(-c2nc3cnccn3c2Nc2ccc(C)cc2)ccc1O | 25
Nc1ccc2c3c(cccc13)-c1ccccc1-2 | 29
COc1ccc(/C=N/Nc2nc(N3CCCC3)nc(N3CCCC3)n2)cc1O | 23
COc1ccc(NC(=O)CNCc2cccs2)c(OC)c1 | 29
NC(=O)N/N=C/c1ccc(N2CCOCC2)s1 | 22
CN=C1S/C(=C\c2ccc(O)c(Br)c2)C(=O)N1C | 23
Cn1c(=O)[nH]c(NCCc2ccc(O)cc2)c([N+](=O)[O-])c1=O | 10
S=C(NCc1ccco1)NCc1ccco1 | 46
COc1cc(/C=N/NC(=O)c2cccc(NC(=O)c3ccccc3C)c2)ccc1O | 19

Some of these compounds in order of count of non-hydrogen atoms, largest number first.
SMILES | MgcRacGAP Rac1
COc1cc(/C=N/NC(=O)c2cccc(NC(=O)c3ccccc3C)c2)ccc1O | 19
COc1ccc(/C=N/Nc2nc(N3CCCC3)nc(N3CCCC3)n2)cc1O | 23
COc1cc(-c2nc3cnccn3c2Nc2ccc(C)cc2)ccc1O | 25
O=c1oc2ccccc2cc1-c1csc(Nc2ccc(O)cc2)n1 | 19
Nc1ccc2c(c1)OCCOCCOCCOCCOCCO2 | -5
Cn1c(=O)[nH]c(NCCc2ccc(O)cc2)c([N+](=O)[O-])c1=O | 10
COc1ccc(NC(=O)CNCc2cccs2)c(OC)c1 | 29
CN=C1S/C(=C\c2ccc(O)c(Br)c2)C(=O)N1C | 23
Nc1ccc2c3c(cccc13)-c1ccccc1-2 | 29
S=C(NCc1ccco1)NCc1ccco1 | 46

(further entries)
SMILES | MgcRacGAP Rac1
CCn1c2ccccc2c2cc(N)ccc21 | 20
COc1ccc(CN2CCN(Cc3ccccc3F)CC2)cc1OC | 34
Nc1ccc(-c2nc3ccc(N)cc3o2)cc1 | 23
O=C1NC(=S)NC1=Cc1ccco1 | 39
N#C/C(=C/c1ccc(N2CCCCCC2)o1)c1ccc(Cl)cc1 | 34
CSc1nc(=S)c2[nH]c(=S)[nH]c2[nH]1 | 58
N=C1/C(=C/c2ccc(Br)o2)C(=O)N=C2SC(CC(=O)N3CCCC3)=NN12 | 35
CCOC(=O)Nc1ccc2c(c1)Nc1ccccc1S2 | 29
COc1ccc(NC2CCCN(C(=O)CCc3scnc3C)C2)cc1 (stereo not given) | 18
COc1cc(/C=N/NC(=O)c2ccc(N3CCCC3=O)cc2)ccc1O | 35
O=c1c2ccccc2n2c(=S)[nH]nc2n1-c1ccccc1 | 23
COc1ccc(NC2CCCN(C(=O)c3ccccc3C(F)(F)F)C2)cc1 (stereo not given) | 28
Cc1sc2ncnc(N/N=C/c3ccc(O)cc3)c2c1C | 20
COC(=O)c1[nH]c2ccc(Cl)cc2c1NC(=O)Oc1ccccc1 | 35
COc1cc(OC)c(Cl)cc1N | 13
CC(=O)C1=C(S(=O)(=O)c2ccc(C)cc2)CS(=O)(=O)C1 | 20
CC[n+]1c(/C=C/N(C)c2ccccc2)oc2ccc(Cl)cc21 | 15
COc1ccc(NC(=O)Cn2nnc(C(=O)NCc3cccs3)c2N)cc1Cl | 6
COCCCNc1nc(=S)[nH]c2cc(OC)c(OC)cc12 | 56
COc1cc(CNCCNC(=O)c2nonc2N)ccc1OCc1ccc(Cl)cc1 | 19
CCN(CC)c1ccc(N=Cc2ccccc2[N+](=O)[O-])cc1 | 19
CN(C)c1ccc(NC(=O)CCN2C(=O)c3cccc([N+](=O)[O-])c3C2=O)cc1 | 16
CN(C)CCCC1Sc2ccccc2Sc2ccccc21 (stereo not given) | 19
O=S(=O)(c1ccc2ccccc2c1)N1CCN(c2ccc(O)cc2)CC1 | 21
COc1c(-c2ccc(O)c(O)c2)oc2cc(O)cc(O)c2c1=O | 15
COc1cc(/C=C2\SC(=Nc3ccccc3OC)NC2=O)ccc1O | 24
COc1ccc(N2CCN(C(=O)c3ccc(CS(=O)c4cccc(Cl)c4)o3)CC2)cc1 (stereo not given) | 15
COc1ccc(-n2nc3c(c2NC(=O)CCCCl)CSC3)cc1 | 12
NNc1cc([N+](=O)[O-])cc2c1C(=O)N(Cc1ccccc1)S2=O (stereo not given) | 41
COc1ccc(NC2CCCN(C(=O)C3=NNC(=O)CC3)C2)cc1 (stereo not given) | 27
Cc1ccc(Nc2c(-c3ccco3)nc3ccccn23)cc1 | 34
COc1ccc(NC(=O)c2ccc(NC(=O)CN3CCN(c4ccc(O)cc4)CC3)cc2)cc1 | 19
Cc1cc(C)c(C)c(OCCNCc2ccccc2)c1 | 26
CC(C)Oc1ccc(OCCn2c(=S)[nH]c3c(N)ncnc32)cc1 | 24
Oc1ccc(/C=N\Nc2cc(N3CCOCC3)nc(N3CCOCC3)n2)c(O)c1 | 22
COc1cc(/C=N/NC(=S)Nc2cccc(S(=O)(=O)N(C)C)c2)ccc1O | 20
Fc1ccccc1Nc1n[nH]c(=S)s1 | 16
Cc1ccc(OCCCN2CCCC2)c(C)c1 | 26
COc1cc(N2C(=O)C=CC2=O)ccc1N1C(=O)C=CC1=O | 43
COc1cc(/C=N/NC(=S)NC2CC3CCC2C3)ccc1O (stereo not given) | 0
CC(=O)Nc1ccc(OC(=O)c2ccc(Br)c([N+](=O)[O-])c2)cc1 | 15
Oc1ccc(/C=N/NC(=S)NCc2ccco2)cc1 | 11
O=C(c1cccc(Cl)c1)N1CCN(C2CCCCC2)CC1 | 27
COC(=O)CC1SC(=O)NC1=Nc1ccc(O)cc1 (stereo not given) | 16
O=C(CN1CCN(c2ccc(O)cc2)CC1)Nc1ccccc1C(=O)NCCc1ccccc1 | 15
CCN(CC)c1ccc(/C=C2\C(=O)c3ccc(C(=O)O)cc3C2=O)cc1 | 18
COc1ccccc1CNc1ncc(-c2ccccc2)n1C | 25
O=C(CSc1ccc2ccccc2n1)N/N=C/c1ccc(O)cc1 | -5
COc1cc(OC)c(C2Nc3cccc4cccc(c34)N2)c(OC)c1 | 9
COc1ccc2oc(=O)c(C(=O)Oc3ccc(NC(C)=O)cc3)cc2c1 | 27
CCOC(=O)c1sc(=S)[nH]c1C | 30
O=c1/c(=C/c2ccc(O)cc2)sc2n1CCCN=2 | 27
COc1cc(/C=N/Nc2cc(C)nc(NS(=O)(=O)c3ccccc3)n2)ccc1O | -13
COc1cc(OC)c2cc[nH]c2c1 | 27
CC1=NN(c2cccc(C(=O)O)c2)C(=O)/C1=C\C=C\c1ccco1 | 40
NSc1nc(N)c2nc(-c3ccccc3)c(-c3ccccc3)nc2n1 | 54
O=C(COc1ccccc1)NCC(=O)N/N=C/c1ccc(O)cc1O | 23
Clc1ccc(OCCOCCNCc2ccccc2)cc1Cl | 27
COc1ccc(NC(=O)c2cc3ccc(O)cc3o/c2=N\O)cc1 | 18
Cc1ccc(/C=N/Nc2ccc(C(=O)O)cc2)s1 | 13

Additional compounds follow:
SMILES | MgcRacGAP Rac1
COc1cc(/C=N/N=C2\CC3CCC2(C)C3(C)C)ccc1O (stereo not given) | 23
Cc1ccc2c(c1)[nH]c1c(N3CCN(Cc4ccccc4)CC3)ncnc12 | 28
Cc1cccc(C)c1OCCCCN1CCNCC1 | 32
C=CCN1C(=O)CSC1=Nc1ccc(O)cc1 | 30
C/C(=N\Nc1nc2ccccc2[nH]1)c1ccc(Cl)s1 | 39
O=C(c1ccccc1)c1ccc(C(=O)N2CCN(c3ccc(O)cc3)CC2)cc1 | 24
O=C1N=c2ccccc2=C1c1sc(Nc2ccc(O)cc2)nc1O | 35
c1ccc(-c2ccccc2OCCOCCN2CCOCC2)cc1 | 30
O=C1ON=C(c2ccccc2)/C1=C/c1ccco1 | 42
CCN(CC)S(=O)(=O)c1ccc(C)c(NC(=O)CN2CCN(Cc3ccccc3)CC2)c1 | 17
COc1cc(/C=C2\SC(=Nc3ccccc3)NC2=O)cc(Cl)c1O | 23
Oc1ccc(/C=N/NC2=NCCCCC2)c(O)c1 | -3
COc1ccc(NC(=O)n2ncc3cc(Cl)ccc32)cc1OC | 24
O=[N+]([O-])c1ccccc1Nc1ccc(O)cc1 | 17
COC(=O)c1ccc2c(c1)C(C)(C)C(/C=C/c1ccc(O)cc1)=[N+]2C | 40
COc1ccc(CCNc2nc(=S)[nH]c3cc(OC)c(OC)cc23)cc1OC | 26
COc1cc(/C=N/NC(=O)CNC(=O)c2cccs2)ccc1O | 33
CC(C)(C)CC(C)(C)NCC(=O)Nc1c2c(nc3ccccc13)CCC2 | 10
Cc1ccc(S(=O)(=O)Nc2ccc(N(C)C)cc2)cc1 | 24
O=C1CCCC2=C1Sc1ccc(Cl)cc1N2 | 34
COc1ccc(OCC(O)CN2CCCC2)cc1 (stereo not given) | 29
CC(NCCCOc1cccc2ccccc12)c1ccccc1 (stereo not given) | 30
Cc1cccc(CN2CCN(Cc3ccco3)CC2)c1 | 26
O=C(CN1CCCCCC1)NCC1CCCO1 (stereo not given) | 27
Cc1ccc(C2=NN=C(NC(=O)CSc3nncn3C)SC2)cc1 | 30
COc1cc(/C=C/C(C)=NNc2ccccc2)ccc1O | 32
COc1cccc2c1C(=N)c1c(O)c3c(c(O)c1C2=O)CC(O)(C(C)=O)CC3OC1CC(N)C(O)C(C)O1 (stereo not given) | 29
CCOC(=O)/C(C#N)=C1/C(=O)N(Cc2ccccc2)c2ccccc21 | 35
CC(=O)NN1C(=O)/C(=C\c2ccc(Br)o2)SC1=S | 32
CCc1nc(Nc2ccc(N3CCN(C(C)=O)CC3)cc2)c2oc3ccccc3c2n1 | 39
COc1cccc(CN2CCC(C(=O)N3CCC(C)CC3)CC2)c1 | 25
CC(=O)NN1C(=O)/C(=C/c2ccc(Br)o2)SC1=S | 32
COc1cc(C=C2CN(C)C(=O)C2=O)ccc1O | 13
C=CCc1cc(Cl)ccc1OCCN(C)C | 18
CC1(C)CC[C@]2(C(=O)n3ccnc3)CC[C@]3(C)[C@H](C(=O)C=C4[C@@]5(C)C=C(C#N)C(=O)C(C)(C)[C@@H]5CC[C@]43C)[C@@H]2C1 | 70
C#CCOCCOCCOCCNc1nc(N2CCN(C(=O)[C@H](CCCCN)n3cc([C@@H](N)CC(C)C)nn3)CC2)nc(N2CCN(C(=O)[C@H](CCCCN)n3cc([C@@H](N)CC(C)C)nn3)CC2)n1 | 40
O=C1C(Cl)=C(NCCc2ccccc2)C(=O)c2ccccc21 | 55
COc1ccc(N2CCN(C(CNS(=O)(=O)c3ccc4c(c3)OCCO4)c3ccco3)CC2)cc1 (stereo not given) | 28
NC1=NC(=O)S/C1=C\c1ccc(O)cc1 | 2
CCc1cc(-c2n[nH]c(CCC(=O)O)c2-c2nc3ccccc3n2C)c(O)cc1O | 31
COc1cc(OC)c(OC)cc1CN1CCN(C(=O)c2cccc3ccccc23)CC1 | 6
CC1=C(C)CS(=O)N(S(=O)(=O)c2ccc(Cl)cc2)C1 (stereo not given) | 46
O=C(Nc1ccccc1Cl)Oc1ccc(-c2ccccc2)cc1 | 21
COc1ccc(N2CCN(c3ncccn3)CC2)cc1 | -5
Oc1ccccc1CNc1ccc2c(c1)OCCO2 | 23
COc1ccc(NC(=O)/C(Cl)=C(/Cl)S(=O)Cc2ccccc2)cn1 (stereo not given) | 56
Cc1ccsc1/C=N/Nc1nc2ccccc2[nH]1 | 23
O=C(O)c1cccc(N/N=C/c2cccs2)c1 | 20
O=C(Nc1ccc(O)cc1)C1CC=CCC1 (stereo not given) | 18
O=[N+]([O-])/C=C/c1ccc2c(ccn2Cc2ccccc2)c1 | 31
CCOc1ccccc1CN(CCc1ccc2c(c1)OCO2)Cc1ccccn1 | 12
CCOC(=O)N1CCC(N2CCN(S(=O)(=O)c3ccc4ccccc4c3)CC2)CC1 | 28
CC(C(=O)NC(=O)NC1CCCCC1)N1CCN(c2ccc(O)cc2)CC1 (stereo not given) | 24
O=C(Oc1ccc2c(c1)OCO2)c1ccncc1 | 25
S=c1[nH]cc2cnccn12 | 30
CN(C)c1ccc(O)c2c1CC1CC3[C@@H](N(C)C)C(=O)C(C(N)=O)=C(O)[C@]3(O)C(=O)C1=C2O (stereo not given in full) | 5
COc1ccccc1OCCCCCCN1CCOCC1 | 29
CCC(=O)Nc1ccc(Nc2ccccc2)cc1 | 27
COc1ccc(NCc2cc3cc(OC)ccc3[nH]c2=O)cc1 | -5
O=C(Cn1c(C(=O)NCc2ccco2)cc2sccc21)c1ccccc1 | 27

Other entries follow.
SMILES | MgcRacGAP Rac1
Cc1ccc(NC(=O)CN2CCN(C)CC2)cc1Br | 27
OC1CCN(C(=S)Nc2ccc(Nc3ccccc3)cc2)CC1 | 9
Cc1ccc(NC(=O)CN2CCC(Cc3ccccc3)CC2)cc1S(=O)(=O)N(C)C | 23
COC(=O)c1[nH]c2cc(OC)c(OC)cc2c1NC(=O)Oc1ccccc1 | 35
CC(NS(=O)(=O)c1ccc(Cl)cc1)C(=O)OCC(=O)Nc1ccc(N(C)C)cc1 (stereo not given) | 12
COc1cc(/C=C/C(=O)OCC(=O)c2ccc[nH]2)ccc1O | 27
O=C(Nc1nc(-c2ccncc2)cs1)C1COc2ccccc2O1 (stereo not given) | -2
COc1cc(/C=C/C(=O)OCC(=O)NCCC2=CCCCC2)ccc1O | 26
COc1ccc(N2CCN(c3ccc(C(N)=O)cc3[N+](=O)[O-])CC2)cc1 | 16
O=C(Nc1n[nH]c(=S)s1)c1ccco1 | 29
CCCc1cc(=S)n2c([nH]c3ccccc32)c1C#N | 26
COc1cc(/C=N/NC(=O)CCN2CCCCC2)ccc1O | 20

Overlap with the part before: four compounds; new compounds follow.
SMILES | MgcRacGAP Rac1
COc1ccc(N2CCN(c3ccc(C(N)=O)cc3[N+](=O)[O-])CC2)cc1 | 16
O=C(Nc1n[nH]c(=S)s1)c1ccco1 | 29
CCCc1cc(=S)n2c([nH]c3ccccc32)c1C#N | 26
COc1cc(/C=N/NC(=O)CCN2CCCCC2)ccc1O | 20
Cc1c(Cl)cccc1Nc1n[nH]c(=S)s1 | 20
Cn1c(=O)[nH]c(=O)c2c1[nH]c(=S)n2CCCc1ccccc1 | 31
CCc1ccc(O)c(N=Cc2cccc(C)c2O)c1 | 23
CCOC(=O)/C(C#N)=C\c1c(OCC)n(CC)c2ccccc12 | 20
CCN1CCN(CCCOc2ccccc2-c2ccccc2)CC1 | 23
